# Screening results from PubChem BioAssay.
# HPGD inh: qHTS Assay for Inhibitors of HPGD (15-Hydroxyprostaglandin Dehydrogenase). 15-hydroxyprostaglandin dehydrogenase [NAD(+)] (Homo sapiens), P15428. purified HPGD, NADH fluorescence kinetic, PGE2 substrate. Potency, µM, without a hit: at the top dose activity change, negative = inhibition, hits mostly inhibitors. 150,000 tested, 4.3% active. AID 894, 2007; active = well fitted inhibition curve with a large enough effect (not every such curve was filed as active); inconclusive = small, poorly fitted or top-dose-only effect, or another doubt; inactive = no such curve, though single readings can be large or run the other way;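 note: top concentration of the series not given in the record; plate controls included wells without enzyme; inactives centre near -10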
# Target sequence (P15428 whole entry, looked up): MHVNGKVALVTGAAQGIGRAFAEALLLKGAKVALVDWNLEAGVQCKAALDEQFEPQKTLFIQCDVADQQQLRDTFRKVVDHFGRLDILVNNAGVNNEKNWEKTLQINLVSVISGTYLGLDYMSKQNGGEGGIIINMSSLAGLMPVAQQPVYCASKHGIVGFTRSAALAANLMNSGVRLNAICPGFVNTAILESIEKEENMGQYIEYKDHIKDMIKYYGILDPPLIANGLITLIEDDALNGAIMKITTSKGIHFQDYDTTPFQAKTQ
#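 20 nM HPGD preincubated 15 min at room temperature with compound in 50 mM Tris-HCl pH 8, 0.01% Tween 20. Started with 1 mM NAD+ and 30 uM prostaglandin E2; NADH fluorescence (360/450 nm) read 5 times over 30-s intervals, last minus first.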
# Numbers without * were called inactive; ? = inconclusive; & = joins results of further samples. % is set by controls: 0 for no effect and ±100 for the full control effect; potency is the fitted concentration of half-maximal effect.
SMILES,HPGD inh
CCOC(=O)Cn1cc(C(=O)c2ccccc2F)c2ccccc21,-18%
Cc1cccc2c1=NC(=O)/C(=C/c1c(O)[nH]c(=O)[nH]c1=O)C=2,?
C[C@]1(O)CC[C@H]2[C@@H]3[C@@H](O)CC4=CC(=O)CC[C@@]4(C)[C@H]3CC[C@]21C,-3%
COC(=O)C(O)(c1cn(C)c2ccccc12)C(F)(F)F (stereo not given),-8%
CC1=C2CCC3C4CCC(=O)[C@@]4(C)CCC3[C@]2(C)CCC1=O (stereo not given in full),-2%
CN1CCN(c2ccc(NC(=O)Oc3ccccc3)cc2)CC1,0%
c1cc(Cc2cnc[nH]2)ccn1,-6%
CN[C@@H](Cc1c[nH]c2ccccc12)C(=O)O,-12%
CCNC(=O)[C@H]1O[C@@H](n2cnc3c(N)ncnc32)[C@H](O)[C@H]1O,-13%
Cc1nnc2ccc(-c3cccc(C(F)(F)F)c3)nn12,?
CNc1ccc2oc(C[C@H]3O[C@@]4(CC[C@H]3C)O[C@H]([C@H](C)C(=O)c3ccc[nH]3)[C@H](C)C[C@H]4C)nc2c1C(=O)O,?
CN1CC(CO)=C[C@H]2c3cccc4[nH]cc(c34)C[C@H]21,-26%
C=CCN1CCC2(C)c3cc(O)ccc3CC1C2C (stereo not given),-10%
COP(=O)(OC)C(O)C(Cl)(Cl)Cl (stereo not given),-12%
CC[C@]1(O)CC(O[C@@H]2CC(N(C)C)C(O)C(C)O2)c2c(cc3c(c2O)C(=O)c2c(O)ccc(O)c2C3=O)C1C(=O)OC (stereo not given in full),-22%
CNC(=O)COC(=O)c1ccc(-c2nc3ccccc3s2)s1,?
c1ccc(C[C@@H](c2ccccc2)N2CCCCC2)cc1,-1%
Cc1ccc(S(=O)ON2CCC(C(=O)O)(c3ccccc3)CC2)cc1 (stereo not given),-9%
C[C@H]1CCC/C=C/C2C[C@H](O)CC2[C@H](O)/C=C/C(=O)O1 (stereo not given in full),-15%
C=CCN1CC[C@]23c4c5ccc(O)c4O[C@@H]2/C(=N/N=C2\CC[C@@]4(O)C6Cc7ccc(O)c8c7[C@@]4(CCN6CC=C)[C@@H]2O8)CC[C@@]3(O)C1C5,8%
O=c1[nH]c(=S)n(C2CC2)c(O)c1/C=N/Nc1ccccc1,-18%
CN1C2CCC1CC(OC(=O)c1cc(Cl)cc(Cl)c1)C2 (stereo not given),-30%&-8%
CN1CCCC2(CCN(C(=O)c3ccco3)CC2)C1,-2%
O=c1cc(C2CCNCC2)[nH][nH]1,-4%
CNCC(O)c1cccc(OC(=O)c2ccccc2C)c1 (stereo not given),-8%

# Entries from the list above containing a COOH group (3):
SMILES,HPGD inh
CN[C@@H](Cc1c[nH]c2ccccc12)C(=O)O,-12%
CNc1ccc2oc(C[C@H]3O[C@@]4(CC[C@H]3C)O[C@H]([C@H](C)C(=O)c3ccc[nH]3)[C@H](C)C[C@H]4C)nc2c1C(=O)O,?
Cc1ccc(S(=O)ON2CCC(C(=O)O)(c3ccccc3)CC2)cc1 (stereo not given),-9%

# 2 records drawn at random from the list so far:
SMILES,HPGD inh
CC1=C2CCC3C4CCC(=O)[C@@]4(C)CCC3[C@]2(C)CCC1=O (stereo not given in full),-2%
COP(=O)(OC)C(O)C(Cl)(Cl)Cl (stereo not given),-12%

# Later entries
SMILES,HPGD inh
CCOP(=S)(OCC)c1ccc(N(C)C)cc1,-6%
Cc1oc2ccc(OC(=O)N(C)C)cc2c1C(=O)OC(C)C,-9%
CCN1CCN(c2ccc(NC(=O)C(C)C)cc2Cl)CC1,2%
O=C(O)CCCc1ccc(N(CCCl)CCCl)cc1,-3%&6%&-9%&-2%&-4%
C=C1[C@@H]2CC[C@H]3[C@@]4(C)C[C@@H](O[C@@H]5O[C@H](CO)[C@H](OS(=O)(=O)O)[C@@H](OS(=O)(=O)O)[C@@H]5OC(=O)CC(C)C)C[C@@H](C(=O)O)[C@H]4CC[C@@]3(C2)[C@H]1O,-8%
O=C(Oc1ccccc1)N1CCC[C@@]2(CCN(Cc3cc(C(F)(F)F)cc(C(F)(F)F)c3)C2)C1,1%
Cc1ccc(-n2c(-c3nn(C)c(C)c3Cl)n[nH]c2=S)cc1,28µM*
Cc1ccc(/C=C2/C(=O)NC(=O)N(CCc3ccc(F)cc3)C2=O)s1,7.1µM*
c1ccc(N2CC3(CCNCC3)C2)cc1,2%
COCCCn1c(N)c(C(=O)NCCC(C)C)c2nc3ccccc3nc21,?
CNc1ccc2oc(C[C@H]3O[C@]4(CC[C@H]3C)O[C@H]([C@H](C)C(=O)c3ccc[nH]3)[C@H](C)C[C@H]4C)nc2c1C(=O)O,?
CC1CCC(C(C)C)C(OC(=O)c2ccccc2N)C1 (stereo not given),?
O=[N+]([O-])c1ccc(F)c([N+](=O)[O-])c1,-24%
CC(O)(CS(=O)(=O)c1cccc(C(F)(F)F)c1)C(=O)Nc1ccc(C(F)(F)F)cc1 (stereo not given),-15%
CNC(=S)NC1CC2CCCC(C1)N2CC(C)C (stereo not given),-4%
O=C(COC(=O)c1ccc(O)cc1)Nc1ccc(Cl)cc1C(=O)c1ccccc1,-7%
COc1ccc(CC2C(=O)NC(=O)N(c3ccccc3)C2=O)c(OC)c1 (stereo not given),-5%
O=c1[nH]c(=S)n(CCC2=CCCCC2)c(O)c1C=NCc1cccnc1,-8%
CC(=O)c1c(C)n(CCCOC(C)C)c2ccc(O)cc12,-10%
Cc1cc(OCc2nn[nH]n2)c2c3c(c(=O)oc2c1)CCC3,?
CC(C)(c1ccc(O)cc1)c1ccc(O)cc1,?
Cc1ccc(S(=O)(=O)NCC(=O)OCC(=O)N2N=C(c3ccc(Cl)cc3)CC2c2ccco2)cc1C (stereo not given),?
CCOCC(=O)NC1CCSC1=O (stereo not given),-4%
C=C(C)[C@H]1[C@H]2OC(=O)[C@@H]1[C@]1(O)C[C@H]3O[C@]34C(=O)O[C@H]2[C@@]14C,-6%
Cc1nc2ccc(Cl)cc2c(-c2ccccc2)c1C(=O)O,-5%

# Next structures.
SMILES,HPGD inh
C=CCC1(C(C)CCC)C(=O)N=C(S)NC1=O (stereo not given),0%
CC(C)CC(N)C1(c2ccc(Cl)cc2)CCC1 (stereo not given),-3%
OC(CNC1CCCCC1)c1ccccc1 (stereo not given),-2%
C/C(=N\N1CCN(C)CC1)c1c(O)n(Cc2ccccc2)c(=O)[nH]c1=O,-20%
Clc1ccc(C(c2ccccc2)c2ncc[nH]2)cc1 (stereo not given),-6%
CCOC(=O)CC1=C(C(=O)OCC)C2(C(=O)Nc3ccccc32)C(C#N)=C(N)O1 (stereo not given),-10%
C=C1C2CCC3[C@@](CC[C@@H]4C(C(=O)O)CC(OC5OC(CO)C(OS(=O)(=O)O)C(OS(=O)(=O)O)C5OC(=O)CC(C)C)C[C@]34C)(C2)C1O (stereo not given in full),-11%
COc1ccc(O)c(C(C)(C)C)c1,-7%
COC(=O)C12CC3=C[C@H](CC3=O)Cc3ccccc3[C@@H]1CNC2=O (stereo not given in full),-11%&-4%
NC(=O)c1cn(C2OC(CO)C(O)C2O)c2ncnc(N)c12 (stereo not given),-7%
CC(C)Sc1nnc([C@@H](N)Cc2ccccc2)o1,?
COc1cc(OC)c2c(c1)OC(c1ccc(OC)c(OC)c1)C(O)C2 (stereo not given),-5%
CCN(CC)S(=O)(=O)c1cc(NC(=O)C(C)N2CC=C(c3ccccc3)CC2)ccc1C (stereo not given),-18%
CC(=O)Nc1cc([As](=O)(O)O)ccc1O,-5%&-1%
COCCCn1c(N)c(C(=O)OCCOC)c2nc3ccccc3nc21,?
COC(=O)[C@@H]1C[C@@]1(C)[C@@H](NP(=O)(c1ccccc1)c1ccccc1)c1ccccc1,-10%&-2%
O=C(O)c1cc2ccccc2oc1=O,-6%
Cc1cccc(CN2CCN(CC(=O)N3CCC4(CC3)OCCO4)C2=O)c1,-6%
CC(C)(C)c1cc(C#N)cc(Br)c1OP(=O)(Oc1c(Br)cc(C#N)cc1C(C)(C)C)c1ccccc1,-9%
Clc1ccccc1CNC1CN2CCC1CC2 (stereo not given),-8%
CC1(C)COC(Nc2ccc(Cl)cc2)=N1,-20%
CC1(C)OC1COc1c2occc2cc2ccc(=O)oc12 (stereo not given),-11%&-8%
CC(=O)Nc1cc(C(=O)N2CCC3(CC2)OCCO3)ccc1S(=O)(=O)c1ccc(C)cc1,-9%
N[C@@H](CP(=O)(O)O)C(=O)O,-2%
Cc1[nH]c2ccccc2c1CN(C)C,-4%

# Reprinted from the part before: 2 compounds, then new ones.
SMILES,HPGD inh
N[C@@H](CP(=O)(O)O)C(=O)O,-2%
Cc1[nH]c2ccccc2c1CN(C)C,-4%
CC(C)[C@@]1(NC(=O)[C@@H]2C[C@H]3c4cccc5[nH]cc(c45)C[C@@H]3N(C)C2)O[C@]2(O)[C@H]3CCCN3C(=O)CN2C1=O,-4%
CN(C)C(=O)Oc1ccc(OCc2nc3ccccc3[nH]2)cc1,0%
O=C1NC(=O)N(c2ccc(Cl)cc2)C(=O)/C1=C\c1ccc(Sc2nc3ccccc3[nH]2)o1,10µM*
CCOP(=O)(OCC)C(NC(=O)c1ccccc1)=C(Cl)Cl,2%
C=CCc1cc(C=C2C(=O)N(C)C(=O)N(C)C2=O)cc(OCC)c1OCc1ccccc1,14µM*
O=[N+]([O-])c1ccc(N2CCCC2)cc1N/N=C1\CN2CCC1CC2,-8%
C[C@@H](Cc1ccc(OCC(=O)O)cc1)NC[C@H](O)c1cccc(Cl)c1,-8%
CCC(C)C1O[C@]2(C=CC1C)CC1CC(C/C=C(\C)[C@H](OC3CC(OC)C(O[C@H]4CC(OC)[C@@H](O)C(C)O4)C(C)O3)[C@@H](C)/C=C/C=C3\COC4C(O)C(C)=C[C@H](C(=O)O1)[C@@]34O)O2 (stereo not given in full),-8%
CCN1C[C@]2(COC)C(O)C[C@H](OC)[C@@]34C5C[C@]6(O)C(OC)C(O)[C@](OC(C)=O)(C5C6OC(=O)c5ccccc5)C(C(OC)C23)C14 (stereo not given in full),3%
COc1cc(OC)c(OC)cc1C=O,-12%&-19%
Nc1ccnn1C1CCNCC1,-3%
C[N+](C)(C)CCOC(=O)CBr,-9%
Clc1ccc2c(c1)C(c1ccccc1Cl)=NCc1nnc(N3CCN(CCOc4ccccc4)CC3)n1-2,-3%
O=c1[nH]c(=S)n(-c2ccccc2)c(O)c1/C=N/N1CCOCC1,-19%
CCCCn1c(N)c(C(=O)NCc2cccs2)c2nc3ccccc3nc21,?
O=[N+]([O-])c1ccc(C2[C@H]3C(c4ccccc4)=NC4(CCCCC4)N23)cc1 (stereo not given in full),-3%
O=C(NC1CN2CCC1CC2)c1ccc(-c2ccc([N+](=O)[O-])cc2)o1 (stereo not given),-29%
NC1CCc2cc(O)c(O)cc2C1 (stereo not given),-14%
O=C(O)CBr,-3%
COC(=O)c1cncn1C(C)c1ccccc1 (stereo not given),-6%
NC(=O)Nc1cccc(C(F)(F)F)c1,-4%
CC1=C(/C=C/c2ccccc2)CCN(C)C1,-10%
Cn1cccc1CNCCc1ccccc1,-12%
ClCC[N+]12CC[N+](CCCl)(CC1)C2 (tested in a mixture with another compound),1%
CCOC(=O)c1nc2ccccc2c(=O)n1-c1ccc(C)cc1,1%

# Reformatted with each value named: four of the compounds above
CC(C)Sc1nnc([C@@H](N)Cc2ccccc2)o1
  HPGD inh: ?
CNc1ccc2oc(C[C@H]3O[C@@]4(CC[C@H]3C)O[C@H]([C@H](C)C(=O)c3ccc[nH]3)[C@H](C)C[C@H]4C)nc2c1C(=O)O
  HPGD inh: ?
COC(=O)[C@@H]1C[C@@]1(C)[C@@H](NP(=O)(c1ccccc1)c1ccccc1)c1ccccc1
  HPGD inh: -10%&-2%
Clc1ccc(C(c2ccccc2)c2ncc[nH]2)cc1 (stereo not given)
  HPGD inh: -6%

# Following part:
SMILES,HPGD inh
COc1ccc(NC(c2ccccc2)P(=O)(Oc2ccccc2)Oc2ccccc2)cc1 (stereo not given),-9%
COc1cc(C2c3cc4c(cc3C(O)C3COC(=O)C23)OCO4)cc(OC)c1O (stereo not given),-4%
c1cc2n(c1)-c1c(ccc3c1OCO3)CNC2c1ccc2c(c1)OCO2 (stereo not given),-9%
c1ccc2c(c1)[nH]c1cnccc12,?
ClC(Cl)(Cl)c1ccccc1,-7%&-6%
COC(=O)CC1=C(C(=O)OC)C2(C(=O)Nc3c(C)cccc32)C(C#N)=C(N)O1 (stereo not given),-13%
CC(C)(C)c1ccc(S(=O)(=O)N2CC3CC(C2)c2cccc(=O)n2C3)cc1 (stereo not given),-12%
Fc1ccc(N2CCN(Cc3ccc4c(c3)OCO4)CC2)cc1,2%
O=c1cccc2n1CC1CC2CN(Cc2c(Cl)cccc2Cl)C1 (stereo not given),8%
O=P(NC(c1ccccc1)c1ccccc1)(Oc1ccccc1)Oc1ccccc1,-2%
N=c1c[n+](CC23CC4CC(CC(C4)C2)C3)[n-]o1,-13%
CCN1CCN(Cc2ccc(OC(F)(F)F)cc2)CC1,-2%
CCC12CCCN3CCC4(c5ccc(OC)c(O)c5N(C(C)=O)C4CC1)C32 (stereo not given),3%
Nc1cc(Cl)ccc1Cl,-1%
CS(=O)(=O)NCc1nnc2n1-c1ccc(Cl)cc1C(c1ccccc1)=NC2,?
CCC(=Nc1ccc(OC)cc1OC)c1c(O)n(C)c(=O)n(C)c1=O,35µM*
Cc1c(C=C2C(=O)N(C)C(=O)N(C)C2=O)c(=O)n(-c2ccccc2)n1C,5%
O=C(N/N=C1/CN2CCC1CC2)c1cccc(O)c1,-2%
O=S(=O)(c1ccc(Cl)cc1)c1ccc(Cl)cc1,-23%&-20%
CCCCn1c(O)c(C=NCCN2CCCCC2)c(=O)[nH]c1=O,6%

# Not all compounds are listed (hit frequency here may not be typical).
